MT1-MMP reporter = MT1-MMP gene expression reporter suppression – cell-based, luciferase reporter, luminescence (AID 618); MT1-MMP promoter luciferase reporter cells, luminescence; calls from a first round at 10 µM; hits with a dose series show EC50 in µM; 0.62% of 87,000 active;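 active means over half of the reporter light lost at 10 µM or EC50 under 50 µM; inactive means the rest and hits that failed the dose series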;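 further: actives suppress MT1-MMP promoter-driven transcription so potencies describe inhibitors; HT1080 fibrosarcoma cells; overnight exposure; toxic or luciferase-blocking compounds were not removed from the actives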
WNV protease inh = inhibitors of West Nile virus NS2B-NS3 protease | P06935 | WNV NS2B-NS3 protease, fluorogenic substrate Ex360/Em465; hits give low values | z-score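 (tested at a level between 10 and 100 µM)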 | 0.18% of 65,000 active | AID 577;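 active means z-score at -3 or under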;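 further: score is relative to mean and spread of the compound wells of a plate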
Target sequence (P06935 1371-1501 limits assumed): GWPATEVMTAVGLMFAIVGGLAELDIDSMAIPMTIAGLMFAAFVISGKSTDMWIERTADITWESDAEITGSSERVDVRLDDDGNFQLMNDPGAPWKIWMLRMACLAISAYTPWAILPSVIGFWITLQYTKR
Target sequence (P06935 1502-1679 limits assumed): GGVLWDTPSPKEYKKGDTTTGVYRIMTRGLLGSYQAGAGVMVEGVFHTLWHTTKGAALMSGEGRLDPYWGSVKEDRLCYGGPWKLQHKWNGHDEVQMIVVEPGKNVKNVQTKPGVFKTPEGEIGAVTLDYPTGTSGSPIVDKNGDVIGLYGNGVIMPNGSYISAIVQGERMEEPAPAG
Hsc70 ATP site = Hsc70 inhibitors, probe displacement, primary screen, biochemical, fluorescence polarization (AID 568) | Hsc70 fluorescence polarization, probe displacement; higher % means a stronger effect; strong numbers were not always called active | displacement, % at 20 µM, or IC50 in µM where a hit was titrated | 83,000 tested, under 10 active;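 active means displacement above 50% without optical interference and an IC50 on retest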;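 further: ATPase domain with a fluorescein-tagged ATP probe; 0% = vehicle and 100% = excess ADP; read after one hour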
Active calls of the source: *; i = inactive; x = no result given; + = active, no number. This is a random part of the collection. Share with any hit: about 0.87%.

Start of the data: the first 2 records (preview)
smiles | WNV protease inh | Hsc70 ATP site | MT1-MMP reporter
CC1C/C(=C/c2cccn2C)C(=O)/C(=C/c2cccn2C)C1 (centres undefined) | x | -167% | i
Cc1onc(-c2ccccc2)c1C(=O)Nc1nnc(N2CCCCCC2)s1 | 0.08 | 6.1% | i

Results, from the start:
smiles | WNV protease inh | Hsc70 ATP site | MT1-MMP reporter
CC1C/C(=C/c2cccn2C)C(=O)/C(=C/c2cccn2C)C1 (centres undefined) | x | -167% | i
Cc1onc(-c2ccccc2)c1C(=O)Nc1nnc(N2CCCCCC2)s1 | 0.08 | 6.1% | i
CC(=O)N1CCc2cc(S(=O)(=O)NCCC(=O)NCCc3ccc(C)cc3)ccc21 | -0.44 | 0.8% | i
CCOC(=O)c1sc(=S)n(-c2ccccc2)c1N | x | -5.1% | i
CCO/C=C1/C(=O)N(C(C)=O)c2ccccc21 | x | 2.6% | i
O=C1NCCCc2nonc21 | 0.33 | -4.5% | i
CCCCC(O)CN1CCC(c2ccccc2)CC1 (centres undefined) | x | 3.2% | i
COc1ccc(C2(C(=O)NCc3ccco3)CCCC2)cc1OC | x | 4.1% | i
COc1cccc(CNC(=O)C2CCCN(c3nc4ccccc4o3)C2)c1 (centres undefined) | -0.89 | 4.3% | i
CSCCC(NC(=O)c1ccco1)C(=O)OCC(=O)Nc1sccc1C#N (centres undefined) | -0.61 | -3.8% | i
Cc1cc(C)n2nc(C(=O)N3CCOCC3)nc2n1 | -1.4 | -1.7% | i
Cc1ccc(CNC(=O)C2CC(=O)N(C3CCCCCCC3)C2)cc1 (centres undefined) | -1.5 | -7.4% | i
COCCn1c(C)cc(C(=O)CSc2ncnc3sc4c(c23)CCC4)c1C | 0.61 | 7.0% | i
Nc1nnnn1/N=C/C=C/c1ccccc1 | 0.26 | -4.8% | i
Cc1cc(-c2ccccc2)c2nncn2n1 | -1.1 | 3.2% | i
COC(=O)CN(c1ccc(F)cc1)S(=O)(=O)c1ccc2c(c1)OCCO2 | -0.33 | -4.0% | i
CCOC(=O)C1=C(C)OC(N)=C(C#N)C1c1ccoc1 (centres undefined) | 0.64 | -1.9% | i
N#CC(C(=O)C12CC3CC(CC(C3)C1)C2)c1nc2ccccc2[nH]1 (centres undefined) | 0.53 | -3.0% | i
CCCCCCCCCCn1c2c(c(=N)c3c1CCC3)CCC2 | x | -0.3% | i
CN1C(=S)SC(C)(NO)C1(C)C (centres undefined) | 0.18 | -1.9% | i
CCc1nc(SCC(=O)N2CCC(C)CC2)c2c(=O)n(C)c(=O)n(C)c2n1 | 1.3 | -0.3% | i
COc1ccc(S(=O)(=O)N2CCCN(CCC(=O)Nc3cccc(C(F)(F)F)c3)CC2)cc1 | -1.3 | 0.8% | i
COc1cc2[nH]c(=O)n(Cc3ccccc3Cl)c(=O)c2cc1OC | x | 6.4% | i
CCOc1ccc(/C(O)=C2\C(=O)C(=O)N(CCN(C)C)C2c2cccc(OC)c2OC)cc1Cl (centres undefined) | -0.6 | 10% | i
O=C(Nc1ccc(Cl)cc1)c1cc2nc(C3CC3)cc(C(F)(F)F)n2n1 | x | -5.8% | i
CCOC(=O)C(O)(CC(=O)Nc1cc(F)ccc1C)C(F)(F)F (centres undefined) | x | 1.7% | i
Cc1cc(C)cc(NC(=O)CCC(=O)Nc2cc(C)on2)c1 | x | -3.7% | i
O=C(Cn1cnc2c(cnn2-c2ccc(F)cc2)c1=O)N1CCN(c2ccccc2)CC1 | -0.13 | -0.2% | i
CSCCC(C(=O)N1CC2(C)CC1CC(C)(C)C2)N1C(=O)c2ccccc2C1=O (centres undefined) | x | 4.6% | i
CCOC(=O)CSC1=C(C#N)C(c2ccc(C)o2)CC(=O)N1 (centres undefined) | -0.04 | -0.9% | +

Going on with the list:
smiles | WNV protease inh | Hsc70 ATP site | MT1-MMP reporter
CCn1ccnc1C(O)c1cccc(OC)c1OC (centres undefined) | -1.2 | 2.0% | i
C=CCN(C(=O)CNC(=O)c1ccco1)C(C(=O)NC1CCCCC1)c1ccc(F)cc1 (centres undefined) | 2.5 | -3.8% | i
CC(C)Sc1nc2c(c(=O)[nH]c(=O)n2C)n1C | 0.55 | 7.7% | i
CCCCNC(=O)CCCn1c(=O)c2ccccc2n(CC(=O)NCCC2=CCCCC2)c1=O | -0.62 | -0.6% | i
CCCn1c(=N)n(CC(O)c2ccco2)c2ccccc21 (centres undefined) | 0.51 | 1.0% | i
N/C(=N\OS(=O)(=O)c1ccc(Cl)cc1)c1ccncc1 | x | 3.8% | i
CCC1Oc2ccc(C)cc2N(CC(=O)N(Cc2cccnc2)Cc2cccc(F)c2)C1=O (centres undefined) | x | 3.4% | i
COCCCNC(=O)c1ccc2c(c1)ncn2-c1ccccc1OC | 1.5 | -4.6% | i
CNC(=O)CC1C(=O)N(C)C(=S)N1NC(=O)c1ccc(Cl)cc1 (centres undefined) | x | -3.1% | i
Cn1c(=O)c2c(ncn2CC(=O)N2CCN(c3ccccc3)CC2)n(C)c1=O | 0.25 | 7.0% | i
COc1ccccc1NC(=O)CCN1CCN(CCC(=O)Nc2ccccc2OC)CC1 | -0.61 | 4.7% | i
CCOC(=O)Cc1ccc(NS(=O)(=O)c2ccc(SC)cc2)cc1 | -1.1 | 1.7% | i
CCOc1nc(-c2ccccc2)ccc1-c1noc(-c2ccc(OC)c(OC)c2)n1 | 0.7 | -2.3% | i
Nc1nc(N2CCN(C(=O)c3ccco3)CC2)nc2ccccc12 | x | -2.1% | i
O=C(O)CCn1c(=O)[nH]c2ccccc2c1=O | -1.2 | 3.9% | i
COc1ccc(CN(C(=O)CN2C(=O)C(C)Oc3ccccc32)C2CCCC2)c(OC)c1 (centres undefined) | -0.76 | -1.0% | i
Cc1cc(Cl)c(S(=O)(=O)NCc2cccnc2)cc1OCC(N)=O | -0.04 | 1.9% | i
CCCCN(C)CCCNC(=O)CC1Oc2ccccc2NC1=O (centres undefined) | 0.51 | 3.5% | i
COc1ccc2oc(=O)c(C(=O)NCc3ccccn3)cc2c1 | x | 4.2% | i
COc1ccc2nc(SCC(=O)/C(C#N)=C(\C)N)[nH]c2c1 | x | -2.7% | i
CS(=O)(=O)N(CC(=O)NCC1CCCO1)Cc1ccc(Cl)cc1 (centres undefined) | -0.03 | 4.4% | i
Cc1ccc(C)c(N(CC(=O)NCCSCc2ccco2)S(C)(=O)=O)c1 | -1.4 | -11% | i
Cc1c(N(C)C(=O)c2ccccc2F)c(=O)n(-c2ccccc2)n1C | 1.3 | -6.8% | i
O=C(CCCOc1ccccc1)Nc1nncs1 | -0.51 | 8.4% | i
CCN(CC)CCCNC(=O)Cn1nc(-c2ccccc2)ccc1=O | x | 1.7% | i
CS(=O)(=O)N(CC(=O)Nc1ccccc1C(=O)NCc1ccccc1)c1ccc2c(c1)OCCO2 | x | 0.7% | i
CCOC(=O)C1CCN(S(=O)(=O)c2nc3nc(C)cc(C)n3n2)CC1 | -1.2 | -1.0% | i
CC1=C(C(=O)OC(C)C)C(c2coc3ccccc3c2=O)C2=C(CCCC2=O)N1 (centres undefined) | x | 5.1% | i
NC(=O)CSc1nnc(CCc2nc3ccccc3[nH]2)n1-c1ccccc1 | x | -0.4% | i
CC(NC(=O)CSc1n[nH]c(=O)n1C1CC1)C12CC3CC(CC(C3)C1)C2 (centres undefined) | 0.3 | 7.9% | i

Single records, as listed above. Values in the order: WNV protease inh | Hsc70 ATP site | MT1-MMP reporter
CCOC(=O)C1CCN(S(=O)(=O)c2nc3nc(C)cc(C)n3n2)CC1 reads -1.2 | -1.0% | i
Nc1nc(N2CCN(C(=O)c3ccco3)CC2)nc2ccccc12 reads x | -2.1% | i
COc1ccc2nc(SCC(=O)/C(C#N)=C(\C)N)[nH]c2c1 reads x | -2.7% | i
COc1ccc2oc(=O)c(C(=O)NCc3ccccn3)cc2c1 reads x | 4.2% | i
CCCCN(C)CCCNC(=O)CC1Oc2ccccc2NC1=O (centres undefined) reads 0.51 | 3.5% | i

(listing goes on)
smiles | WNV protease inh | Hsc70 ATP site | MT1-MMP reporter
CCOc1cc(/C=N/N=C(/N)c2nonc2N)cc(Br)c1OCc1ccc(Cl)cc1 | x | 0.7% | i
COCCNC(=O)C(c1cccs1)N(C(=O)Cn1nnc2ccccc21)c1cccc(C)c1 (centres undefined) | -1.1 | 3.1% | i
CCCCN1C(=O)C(O)(CC(=O)c2ccco2)c2cc(Br)ccc21 (centres undefined) | 2.6 | 0.1% | i
CCOC(=O)c1ccccc1NC(=O)COC(=O)C1=COCCO1 | -0.31 | 3.7% | i
Cc1nn(-c2ccc(F)cc2)c(Cl)c1/C=C(\CCC(=O)O)c1nc2ccccc2s1 | x | -0.3% | i
COc1ccccc1-n1cnnc1SCC(=O)c1ccc[nH]1 | 0.68 | -4.7% | i
CCn1cc(C(=O)NCC2CCCO2)c(=O)c2cc(S(=O)(=O)N(C)C3CCCCC3)ccc21 (centres undefined) | -0.36 | 2.6% | i
CCOC(=O)C1CCCn2c1nc1sc3c(c1c2=O)CCCC3 (centres undefined) | 0.13 | 5.1% | i
Cc1ccc(S(=O)(=O)N2CCN(S(=O)(=O)c3ccc(C)cc3)C2c2ccccc2)cc1 | x | 2.5% | i
CSc1ccccc1C(=O)NCCSC(C)(C)C | -0.56 | 4.1% | i
N=c1n(Cc2ccc(Cl)cc2)c2ccccc2n1CC(O)c1ccco1 (centres undefined) | -0.19 | -7.1% | i
Cc1cccc(N(C(=O)CNC(=O)c2ccco2)C(C(=O)NC2CCCC2)c2ccncc2)c1 (centres undefined) | x | 2.4% | i
COc1ccccc1C(=O)N1CCNC(=O)C1CC(=O)Nc1ccc(Cl)cc1 (centres undefined) | 1.1 | 3.6% | i
O=C(Nc1ccc(O)cc1C(=O)O)c1ccc2c(c1)C(=O)N(Cc1ccco1)C2=O | -0.22 | 1.3% | i
O=C(Nc1cccc2ncccc12)c1ccc2c(c1)OCCO2 | -0.22 | -3.1% | i
CC1(C)CC(=O)c2sc(N)nc2C1 | 0.2 | -0.5% | i
CCCNC(=O)Nc1cc(OCC)c(N2CCOCC2)cc1OCC | -0.59 | 1.2% | i
Cc1c(N(C)C(=O)C2CCCN2S(=O)(=O)c2ccccc2)c(=O)n(-c2ccccc2)n1C (centres undefined) | 0.23 | 2.8% | i
CC(NC1CCCC1)C(=O)Nc1ccccc1-c1ccccc1 (centres undefined) | x | -2.7% | i
CCCCn1c(SCC(=O)N(CC)C2CCS(=O)(=O)C2)nnc1C(CC)N(C)C (centres undefined) | -0.84 | -4.9% | i
CCc1nc(NCCN)c(C#N)c2c1CSC(C)(C)C2 | x | 3.7% | i
Cc1ccc(Nc2nc3ccccc3[nH]2)nc1 | x | -2.4% | i
Cc1noc(C)c1COC(=O)c1ccc(S(=O)(=O)NCc2ccco2)cc1 | -0.31 | 0.5% | i
COC(=O)c1ccccc1NC(=O)CN(C)S(=O)(=O)c1cc(C)ccc1OC | 0.82 | 3.0% | i
Cc1noc(C)c1C(=O)N1CCOCC1 | x | 8.7% | i
COc1ccc(CCNC(=O)CS(=O)Cc2nc(-c3cccs3)oc2C)cc1OC (centres undefined) | 0.33 | 3.7% | i
CCOC(=O)Nc1ccc2c(c1)N(C(=O)CN(CC)CC)c1ccccc1C=C2 | -1.1 | -0.1% | i
CCOc1ccc(-n2c(SCC)nc3c(c2=O)SCC3)cc1 | -0.31 | 3.1% | i
CC(=O)N1c2ccccc2N(Cc2ccc(C)cc2C)C(=O)C1(C)C | -0.75 | -0.3% | +
Cc1cc(=O)[nH]c(SCC(N)=O)c1C#N | 0.21 | -4.1% | i

Next part
smiles | WNV protease inh | Hsc70 ATP site | MT1-MMP reporter
COc1ccc(C2N=C(c3ccccc3)NC(c3ccccc3)=N2)cc1 | x | 2.2% | i
CC1(C)NC(=O)N(CCOCCSc2ccccc2)C1=O | -0.36 | 4.5% | i
O=C(O)CSc1nnc(-c2cc3ccccc3o2)n1-c1ccccc1 | 0.23 | 2.4% | i
COC(=O)c1cccc(NC(=O)c2ccco2)c1 | x | 0.4% | i
O=C(CN1CCCCCC1)N1c2ccccc2Sc2ccc(C(F)(F)F)cc21 | x | -0.8% | i
COc1ccc(CC(=O)N2CC(=O)N(CCc3ccccc3)C(=O)C2)cc1 | 2.4 | 3.9% | i
CCCc1cc(=O)oc2c(CN3CCOCC3)c(O)ccc12 | x | 3.6% | i
CCOC(=O)c1[nH]c(C)c(C(=O)Nc2cc(OC)ccc2OC)c1C | -0.88 | -3.3% | i
COc1ccc(-n2c(Cc3cccn3C)nnc2SCC(=O)Nc2nc(C)cs2)cc1 | 1.7 | -2.8% | i
O=P(O)(c1ccccc1)c1ccccc1O | 0.78 | 0.2% | i
CCOc1cc(C2NC(=O)N(C)C(C)=C2C(=O)OC)cc(Br)c1O (centres undefined) | -0.03 | -9.4% | i
CCn1cc(C(=O)NCc2ccc3c(c2)OCO3)c(=O)c2cc(S(=O)(=O)N3CCOCC3)ccc21 | 0.32 | 4.0% | i
COC(=O)Cn1cc(C(=O)OC)cc(Br)c1=O | 0.19 | -7.7% | i
CS(=O)(=O)N1CCN(c2ccc(NC(=O)C(c3ccccc3)c3ccccc3)cc2)CC1 | x | -2.5% | i
CC(C)CNC(=O)c1cc(-c2ccco2)on1 | -1.3 | -0.4% | i
Cc1cc(C)cc(NS(=O)(=O)c2ccc3[nH]c(=O)[nH]c3c2)c1 | 0.24 | -6.1% | i
N#CN=C1CCCCCN1CC(N)=O | 1.3 | 7.2% | i

Screening data from PubChem.
